# Screening results from PubChem BioAssay.
# Calb biofilm kill – mixtures killing C. albicans biofilm; C. albicans biofilm persisters + clotrimazole, fluorescence viability; primary screen in compound mixtures of four per well; inhibition, % at 7.6 µM; 0.02% of 120,000 active; AID 1242;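 active means inhibition above 30.3% in the primary screen of four-compound pools, then above 30% when the compound was retested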;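 further: compounds exposed to preformed 24 h biofilms for 48 h; the number belongs to the whole pool; some results filed as inactive read as strong as hits; inactives centre near 12; 0% = biofilm with clotrimazole alone and 100% = kill control; retested singly at about 60 µM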
#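 System: C. albicans CAF4-2 wild-type biofilms; Medium: RPMI/MOPS medium, pH 7.0; Reagent: Clotrimazole, 50 µg/mL; Times: biofilm formation 24 h, compound exposure 48 h, 37 °C; Detection: 2-h Alamar Blue fluorescence, 535/590 nm excitation/emission; Evaluation: percent inhibition of biofilm viability.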
# * = called active by the depositor; & = joins results of further samples. These rows are one share of the data; rates above refer to the full screens.
Structure	Calb biofilm kill
Cc1cccc(C2c3[nH]c4ccccc4c3CCN2C(=O)c2ccc(=O)[nH]c2)n1 (centres undefined)	5
O=C(NCCN1C(=O)S/C(=C\c2ccc(OC(F)F)cc2)C1=O)[C@@H]1CCCN1C(=O)c1cccs1	6
CC(=O)C1C(c2ccc(F)c(F)c2)NC(=O)NC1(O)C(F)(F)F (centres undefined)	4
CC(=O)c1csc(CS(=O)(=O)c2ccccn2)n1	4
COc1ccc(N2CCSC2C(=O)NN)cc1 (centres undefined)	17
Cc1ccc2c(c1)c(C)c(C)n2CC(O)CN1CCOCC1 (centres undefined)	16
Cc1cc(SCC(=O)O)nc2ccccc12	29&21
O=S(=O)(NC1CCCCC1)c1ccc(Cl)nc1	13
CC(C)S(=O)(=O)c1csc(C(=O)Nc2ccc(F)cc2)c1N	16
O=C(CC12CC3CC(CC(C3)C1)C2)NC(=S)NCc1ccccc1	11
CCC(COC(=O)Nc1ccccc1)NC(=O)OC(C)C (centres undefined)	-3
O=C(Nc1ccc(N2CCOCC2)c(Cl)c1)c1ccc2c(c1)OCCO2	22
C=CCN1C(=O)/C(=C2/Sc3ccc(OC)cc3N2C)SC1=NCc1ccccc1	21
Cc1cc(C)n(-c2nnc(C)n2NC(=O)c2cccc(Cl)c2)n1	11
COc1ccc(Cl)cc1NC(=S)N(Cc1ccccc1C)CC1CCC(C(=O)O)CC1 (centres undefined)	11
CCOc1ncccc1C(=O)Nc1nnc(C(CC)CC)s1	12
CC(=O)N(c1ccccc1C)S(=O)(=O)c1ccc(Cl)cc1	11
Cc1ccc(NC(=O)c2ccc(CNc3c(N4CCC(C)CC4)c(=O)c3=O)cc2)cc1	7
Cn1c(SCC#N)nnc1-c1cccnc1	13
Cc1cc(C)n(-c2nc(Nc3ccccc3C(F)(F)F)nc(-n3nc(C)cc3C)n2)n1	6
O=c1cc(N2CCCCC2)[nH]c(=O)n1C1CCCCC1	8
COc1ccc2c(c1)c(C(=O)N/N=C/c1ccc(O)c(O)c1)c(C)n2C	5
C=C(C)c1cccc(C(C)(C)NC(=O)NCc2ccc(OC)cc2)c1	11
O=C1N=C(N2CCOCC2)S/C1=C\c1ccccc1OS(=O)(=O)c1ccccc1	30
COc1cc(/C=C(\C#N)c2nc3ccccc3s2)ccc1OCC(=O)Nc1ccccc1	6
COc1ccc(-c2c(=O)n(OCc3ccccc3[N+](=O)[O-])c3ccccc3[n+]2[O-])c(OC)c1	29
CCOc1cc(C(=O)Nc2ncn[nH]2)cc(OCC)c1OCC	18
C#CCNC(=O)C1=C[C@@H](c2ccc(Br)cc2)C[C@@H](OCc2ccc(CO)cc2)O1	22
COCCn1c(SCC(=O)N2CCc3ccccc3C2)nc2cc(Cl)ccc2c1=O	3
Cc1cc(C)cc(NC(=O)C(=O)NCCc2c[nH]c3ccccc23)c1	0
CC1(C)CC2(CC(c3ccccc3)c3ccc(O)cc3O2)NC(=S)N1 (centres undefined)	9
O=C(O)CCCN1C(=O)/C(=C\c2ccco2)SC1=S	28
Cc1ccc(/C=N/Nc2ccc(Cl)nn2)cc1	19
O=C(Cn1c2ccccc2c(=O)c2ccccc21)N/N=C/c1ccc(N2CCCC2)c([N+](=O)[O-])c1	11
CC1(CCc2ccccc2)NC(=O)N(CC(=O)O)C1=O (centres undefined)	17
COc1ccc(Br)cc1-c1nc(CCl)cs1	0
CC(=O)c1ccc(NC(=S)Nc2cccc3cnccc23)cc1	18
CC(=O)c1cc(C(C)=O)c(C)nc1C	11
COc1ccc(N(C(=O)c2cccnc2)S(=O)(=O)c2ccccc2)cc1	-9
COc1cccc(C(=O)C2CCCN(C(=O)c3ccc(C#CC(C)(C)O)cc3)C2)c1 (centres undefined)	22
O=C(O)CC1S/C(=N/N=C/c2ccc(-c3ccc(Cl)c([N+](=O)[O-])c3)o2)NC1=O (centres undefined)	16
COC(=O)Cc1ccc(NC(=S)NCc2ccco2)cc1	1
CC(C)N(C(=S)NCc1ccccc1)c1ccccc1	13
O=C(/C=C/c1ccccc1[N+](=O)[O-])NCCN1C(=O)S/C(=C\c2ccc(F)cc2)C1=O	9
O=C(Nc1ccc(N2CCCC2)cc1)c1ccc([N+](=O)[O-])cc1Cl	17
COc1ccc(OC)c(NC(=O)C2CC(=O)N(CCc3ccccc3)C2)c1 (centres undefined)	27
CCCN(Cc1ccco1)S(=O)(=O)c1ccc(OC)c(OC)c1	26
S=c1[nH]nc(-c2ccc(Cl)cc2)n1CCCN1CCOCC1	6
Cc1ccc(CNC(C)(C)CO)cc1	14
Cc1ccc(NC(=O)CCCc2nc3ccccc3s2)c(O)c1	6
O=C1CC(c2ccco2)CC(O)=C1C=Nc1ccccc1-c1ccccc1 (centres undefined)	15
CS(=O)(=O)c1ccc(C(=O)OCC(=O)NC2CCS(=O)(=O)C2)cc1[N+](=O)[O-] (centres undefined)	21
S=c1[nH]nc(C(c2ccccc2)C2CCCCC2)o1 (centres undefined)	30
CCOC(=O)C(C)Oc1c(C(=O)OC)sc2ncccc12 (centres undefined)	3
CCC(=O)c1ccc(N2CCN(C(=O)c3cc([N+](=O)[O-])ccc3F)CC2)c(F)c1	-5
O=C(NCc1ccc(C(F)(F)F)cc1)C1CC(c2ccccc2C(F)(F)F)=NO1 (centres undefined)	22
CC(=O)Nc1ccc(N(C(=O)CNC(=O)c2ccco2)C(C(=O)NCC2CCCO2)c2ccccc2)cc1 (centres undefined)	4
O=C(Nc1ccc(NS(=O)(=O)c2ccccc2)cc1)c1cccnc1	18
O=c1cc(CSc2nnc(Nc3ccccc3F)s2)nc2sccn12	6
O=[N+]([O-])c1ccc(N2CCCCC2)s1	13

# Going on with the list.
Structure	Calb biofilm kill
COc1ccc(CC(=O)Nc2nnc(SCC(=O)NCc3ccco3)s2)cc1OC	2
CN(n1cnc2ccccc2c1=O)S(C)(=O)=O	7
CCCc1nnc(NC(=O)Nc2ccccc2OC)s1	6
COc1ccccc1CC(=O)N1CCN(c2ccc([N+](=O)[O-])cc2)CC1	2
CC(C)Cc1c(O)nc(SCC(=O)Nc2ccc3c(c2)CCC3)[nH]c1=O	14
O=C(C1CCN(Cc2cccs2)CC1)N1CCN(Cc2ccc3c(c2)OCO3)CC1	9
COc1ccccc1NC(=S)N(CCCN1CCOCC1)Cc1cn(C)c2ccccc12	15
Cc1ccc(NC(=O)C(=O)NCCOc2ccccc2Cl)cc1	-2
Cc1ccc(OCCOCCOc2ccc(Br)cc2/C=N\NC(=O)c2ccncc2)cc1	16
C/C(=N\NC(=O)c1ccc(CN2CCOCC2)cc1)c1cccc([N+](=O)[O-])c1	8
Cn1c2ccccc2c2cc([N+](=O)[O-])ccc21	18
CC1(C)Cc2c(sc(NC(=O)C(C)(C)C)c2C#N)C(C)(C)N1	13
Cc1cc(C)cc(N(C(=O)c2nsc(Cl)c2Cl)C(C(=O)NC2CCCC2)c2ccc(O)cc2)c1 (centres undefined)	22
O=C(CN(C(=O)c1ccc(Cl)cc1)N1C(=O)C2C3C=CC(C3)C2C1=O)c1cccs1 (centres undefined)	14
CCOC(=O)C1=C(C)NC(=O)CC1c1ccccc1OC (centres undefined)	8
CC1COC(Cn2c3ccccc3c3ccccc32)O1 (centres undefined)	2
C/C(=N\NC(=O)COc1ccc(C)cc1Br)c1cc([N+](=O)[O-])cs1	5
COc1cc(/C=N/Nc2ccc(Cl)c(C(=O)O)c2)ccc1OCC(=O)N1C(C)CCCC1C (centres undefined)	8
Cc1cc(C)nc(CCNC(=O)c2cc(COc3c(F)cccc3F)on2)n1	9
O=C(O)CCCNC(=O)/C(=C\C=C\c1ccccc1)NC(=O)c1ccccc1Cl	16
CN(C(=O)CSc1nc(-c2ccccc2)c(-c2ccccc2)o1)C1CCS(=O)(=O)C1 (centres undefined)	9
COc1ccccc1N1N=C(C(=O)c2ccccc2)C2C(=O)N(c3ccc(Br)cc3)C(=O)C21 (centres undefined)	8
Cc1cc2cc(CN(CC3CCCO3)C(=S)Nc3ccccc3)c(=O)[nH]c2cc1C (centres undefined)	10
Cc1cccc(N(Cc2ccc(Cl)cc2)S(C)(=O)=O)c1	12
O=C(CCS(=O)(=O)Cc1ccccc1F)NCc1ccccc1Cl	18
CCOC(=O)c1c(C)[nH]c(C2=NNC(=Nc3cccc(Cl)c3)SC2)c1C	15
O=C(CN1CCN(S(=O)(=O)c2ccccc2)CC1)Nc1ccc([N+](=O)[O-])cc1	3
COc1ccc(/C=C/C(=O)Nc2nc(C)c(C(=O)N(C)C)s2)cc1OC	4
COc1ccc(NC(=O)c2c(C(F)(F)F)nn(C)c2Cl)cc1	13
CC1=C(C#N)C(=O)N(C2CCS(=O)(=O)C2)C(=O)/C1=C\c1ccco1 (centres undefined)	4

# In another format: four of the compounds above.
CC1COC(Cn2c3ccccc3c3ccccc32)O1 (centres undefined)
- Calb biofilm kill: 2

C/C(=N\NC(=O)COc1ccc(C)cc1Br)c1cc([N+](=O)[O-])cs1
- Calb biofilm kill: 5

COc1cc(/C=N/Nc2ccc(Cl)c(C(=O)O)c2)ccc1OCC(=O)N1C(C)CCCC1C (centres undefined)
- Calb biofilm kill: 8

Cc1cc(C)nc(CCNC(=O)c2cc(COc3c(F)cccc3F)on2)n1
- Calb biofilm kill: 9

# Next entries follow.
Structure	Calb biofilm kill
CC(C)CN1CCN(Cc2cccc3cccnc23)CC1CCO (centres undefined)	29
Nc1nc2c(s1)COc1ccccc1-2	21
O=C(N/C(=C/c1cccc([N+](=O)[O-])c1)C(=O)N1CCCCC1)c1cccs1	16
CCc1c(C)c2c(C)nn(-c3ccccc3)c2oc1=O	13
COc1ccc(CCN=C(N)NS(=O)(=O)c2ccccc2)cc1OC	20
CCOC(=O)Cc1csc(NC(=O)CSc2nnc(-c3cccnc3)n2Cc2ccco2)n1	15
Cc1[nH]n(-c2c(Cl)cc(Cl)cc2Cl)c(=O)c1C=Nc1ccc(S(=O)(=O)N2CCOCC2)cc1	11
O=C(c1cc(-c2ccco2)nc2ccccc12)N1CCN(c2ccc(F)cc2)CC1	9
Cc1cc(NC(=O)COc2c(C)cccc2C)no1	17
COc1cc(/C=C2/SC(N)=NC2=O)ccc1Oc1ccc([N+](=O)[O-])cc1[N+](=O)[O-]	-6
Nc1cccnc1Oc1ccc(F)cc1	7
C=CCn1c(CCc2cc(C(C)(C)C)c(O)c(C(C)(C)C)c2)n[nH]c1=S	15
CC12COC3(C(N)=O)CC1CCC32C (centres undefined)	17
CNCCCOc1ccc2c(c1)CCC2	24
COC(=O)c1ccc(N=NNc2ccc(C(=O)OC)cc2)cc1	20
CN(C)S(=O)(=O)c1ccc(Cl)c(NC(=O)CN2CCc3ccccc3C2)c1	16
Cc1ccc(S(=O)(=O)N2CCCC(C(=O)NCC(C)C)C2)cc1 (centres undefined)	22
Cc1cccc(NS(=O)(=O)c2ccc3c(c2)NC(=O)CC(=O)N3)c1	17
Cc1[nH]c2ccccc2c1/C=N\NC(=O)CNc1ccc2c(c1)OCO2	9
CCOC(=O)C(=O)N(CC)C1CCS(=O)(=O)C1 (centres undefined)	14
CC(C)(C)NC(=O)NC(=O)COC(=O)COc1ccc(Cl)cc1Cl	18
COC(=O)c1cn(NC(=O)c2ccc(OC)c([N+](=O)[O-])c2)c(=O)c2ccccc12	13
CCc1nnc(NS(=O)(=O)c2ccc(Nc3ccc([N+](=O)[O-])c4nonc34)cc2)s1	1
NC(=O)CC(NC(=O)Cc1ccc(Br)cc1)c1ccc(NCCc2ccccc2F)c([N+](=O)[O-])c1 (centres undefined)	18
CN(C)c1nc(C=C(C#N)C#N)c(Cl)n1-c1ccc(F)cc1	15
COc1ccccc1CNC(=O)C1CCC1	7
Cc1ccc2nc(-c3ccc(NC(=S)NC4CC(C)(C)NC(C)(C)C4)cc3)sc2c1	6
CCCN1C(=O)/C(=N\OCC(=O)NC23CC4CC(CC(C4)C2)C3)c2ccccc21	1
COc1ccc(NS(=O)(=O)c2cc(NC(=O)c3cccs3)ccc2N2CCOCC2)cc1	11
O=C1N(Cc2cccc(Cl)c2)C[C@@H]2C[C@@H](c3cccc4ncccc34)N3CCC[C@@]123	5

# Taken from above:
# Reading of Cc1cccc(NS(=O)(=O)c2ccc3c(c2)NC(=O)CC(=O)N3)c1 under Calb biofilm kill: 17
# Reading of Cc1[nH]c2ccccc2c1/C=N\NC(=O)CNc1ccc2c(c1)OCO2 under Calb biofilm kill: 9
# Reading of Cc1ccc(S(=O)(=O)N2CCCC(C(=O)NCC(C)C)C2)cc1 (centres undefined) under Calb biofilm kill: 22
# Reading of NC(=O)CC(NC(=O)Cc1ccc(Br)cc1)c1ccc(NCCc2ccccc2F)c([N+](=O)[O-])c1 (centres undefined) under Calb biofilm kill: 18
# Reading of CCCN1C(=O)/C(=N\OCC(=O)NC23CC4CC(CC(C4)C2)C3)c2ccccc21 under Calb biofilm kill: 1
# Reading of CC(C)(C)NC(=O)NC(=O)COC(=O)COc1ccc(Cl)cc1Cl under Calb biofilm kill: 18

# Other compounds.
Structure	Calb biofilm kill
Cc1nc2cc(-c3cccs3)[nH]n2c(=O)c1C	10
Cc1cc(C)cc(C(=O)NCC(=O)OCC(=O)c2cc(C)n(CC(F)(F)F)c2C)c1	19
CC1=CC(C)(C)N(C(=O)CNC2CCCCC2)c2cc(C)ccc21	6
O=C(NC(=S)NCCCN1CCOCC1)c1ccc([N+](=O)[O-])cc1	8
Cc1ccc(-n2c(-c3ccco3)n[nH]c2=S)cc1	5
O=C1CC(N2CCN(c3ccccc3)CC2)C(=O)N1Cc1ccc(Cl)cc1 (centres undefined)	17
COC(=O)c1c(C)oc(C)c1S(=O)(=O)NCC1CC1	1
